Vif A3G – HIV-1 Vif–A3G interaction blockers – biochemical, TR-FRET, GST-Vif 1-94, biotin-A3G peptide, dose response retest, primary screen (AID 1117319). 260,000 compounds, 0.57% hits. inhibition, %; hits with a dose series show IC50 in µM. TR-FRET GST-Vif / biotin-A3G peptide binding; higher % means a stronger effect; test concentration not given here; strong numbers were not always called active;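 active = above the screen mean plus three standard deviations and confirmed in dose response; inconclusive = results disagree or hit not tested in dose response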;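 also: Vif residues 1-94 fused to GST binding biotinylated APOBEC3G peptide 110-148; 0% = full assay without inhibitor and 100% = GST in place of GST-Vif; retest series ran down from 100 µM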
A1 inh – inhibitors of the anti-apoptotic protein A1, read as caspase activation | MEF A1-2A-BIM cells, Caspase-Glo 3/7 luminescence, 3 h; percent of clofoctol response, vehicle zero | AID 2462 | 330,000 compounds, 0.066% hits | caspase activation, % (no concentration beside the values);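 active = over half of replicate activation scores above 10%, or exactly half above 10 with the replicate mean above 10; inconclusive = replicate mean below 10 yet half the replicates above 10; inactive = over half of replicates below 10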;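 also: wells of about 30 µL received 50 nL stock; many hits fall short of the cut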
MLL AF4-AF9 inh – blocks AF4 peptide binding to human AF9; P42568; AlphaScreen, biotin-AF4 peptide binding to FLAG-AF9; inhibition, % at 10 µM; 350,000 compounds, 0.47% hits;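 active = every replicate reaching a set inhibition limit, whatever the replicate mean, cut at about 25% in these data; inconclusive = mean inhibition reaches that limit but some replicates miss it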;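 also: 0% = plate neutral control median and 100% = total signal loss; the record names both 10 and 1 µM as test concentration; the first replicate is given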
Target sequence (P42568 whole entry, looked up): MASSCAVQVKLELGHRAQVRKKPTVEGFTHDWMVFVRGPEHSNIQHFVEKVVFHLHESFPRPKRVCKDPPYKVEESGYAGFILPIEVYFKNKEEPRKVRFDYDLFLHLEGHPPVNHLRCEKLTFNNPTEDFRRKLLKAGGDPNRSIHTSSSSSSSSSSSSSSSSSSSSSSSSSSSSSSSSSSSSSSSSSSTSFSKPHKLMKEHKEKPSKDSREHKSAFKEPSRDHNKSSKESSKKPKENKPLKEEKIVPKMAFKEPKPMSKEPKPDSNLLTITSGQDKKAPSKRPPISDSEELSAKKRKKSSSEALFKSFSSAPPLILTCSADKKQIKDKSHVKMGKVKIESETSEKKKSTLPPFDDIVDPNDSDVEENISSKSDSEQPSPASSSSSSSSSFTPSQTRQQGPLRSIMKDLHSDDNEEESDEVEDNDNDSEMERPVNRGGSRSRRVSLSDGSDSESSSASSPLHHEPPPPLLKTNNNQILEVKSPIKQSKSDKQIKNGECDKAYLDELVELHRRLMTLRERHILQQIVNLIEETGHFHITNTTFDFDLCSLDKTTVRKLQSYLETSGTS
Ecoli rRNA inh – selective bacterial rRNA inhibition in E. coli | AID 720706 | 350,000 compounds, 1.6% hits | GFP signal change (wild-type ribosome), % (concentration not given with the values) | E. coli WT GFP vs humanized-ribosome RFP mutants, fluorescence, 24 h; active compounds read low; DMSO median 0, no signal -100;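 active = significant combined selectivity score with lowered wild-type GFP, culture density cut under 30%, mutant RFP and density less affected; inactive = any of these conditions unmet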; also: one replicate is shown; some compounds called inactive have numbers as strong as hits
T cruzi inh – blocks replication of Trypanosoma cruzi; T. cruzi beta-gal in NIH3T3, luminescence, 90 h; 300,000 compounds, 1.4% hits; inhibition, % (no concentration beside the values);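 active = mean inhibition across valid replicates above about 55%, limit read from the data; inconclusive = mean below that limit but half or more replicates reach it; inactive = mean below it, under half of replicates reach it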;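 also: signal also drops with host cell toxicity which is not excluded here; 0% = plate median of DMSO wells and 100% = zero luminescence signal; higher percent means less beta-gal luminescence so fewer parasites; stock transfer was 50 nL into about 50 µL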
RanGTP-Impb inh – disruptors of Ran-importin-beta complex formation – biochemical, FRET, CFP-Ran, YFP-importin-beta, homogeneous, primary screen; cell-free CFP-Ran/YFP-importin-beta FRET ratio; inhibition, % (concentration not given with the values); 300,000 compounds, 1.1% hits;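 active = most replicates above 15%; inconclusive = exactly half above 15%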;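 also: 0% = DMSO wells and 100% = Ran loaded with GDP instead of GTP; wells of about 40 µL received 100 nL stock; the first replicate is given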
Calb FLC – C. albicans growth modulation with fluconazole | C. albicans CaCi-2 (fluconazole-resistant clinical isolate) + fluconazole, Alamar Blue growth, 48 h | growth inhibition, % (no concentration beside the values) | 300,000 compounds, 0.57% hits | AID 1979;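 active = most replicates above 75%; inconclusive = exactly half above 75%; inactive = most below 75%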;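 also: all wells also contain fluconazole at 8 µg/ml as a sub-toxic cotreatment; 0% = median of DMSO wells and 100% = median of geldanamycin control wells; wells of about 8 µL received 7.5 nL stock; the first replicate is given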
Beta apoptosis – beta cell apoptosis inhibition; INS-1E cytokine-induced death, ATP luminescence, 48 h; percent of positive-control rescue, neutral wells zero; protection from apoptosis, % (concentration not given with the values); AID 435005; 300,000 compounds, 0.8% hits;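 active = all replicates at 75% or more, or half of them and the mean; inconclusive = half reach 75% but not the mean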;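 also: 0% = cytokine-treated negative control wells and 100% = positive control rescue; higher means more ATP so stronger rescue from cytokine killing; wells of about 40 µL received 100 nL stock; the first replicate is given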
Ecoli rRNA inh OD600 – second read-out of Ecoli rRNA inh, no call of its own (marks repeat the call); OD600 change, %; measured here: OD600 growth;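 optical density of the mix in the first replicate; 0 = DMSO median and -100 = no signal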
Ecoli rRNA inh RFP – further read-out of Ecoli rRNA inh, marked with its call; RFP signal change, %; measured here: RFP humanized mutant strains;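 first replicate; 0 = DMSO median and -100 = no signal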
Starred values were filed as active, the others as inactive; ? = inconclusive; . = not tested or not shown. Some of the compounds tested, so the mix of outcomes need not match the whole.

SMILES	Vif A3G	A1 inh	MLL AF4-AF9 inh	Ecoli rRNA inh	Ecoli rRNA inh OD600	Ecoli rRNA inh RFP	T cruzi inh	RanGTP-Impb inh	Calb FLC	Beta apoptosis
Cc1c(O)ccoc1=O	.	0.5	-1.2	4	11	11	3	5.2	-2	-3
CN1C=CC=C/C1=C1\SC(=S)N(N)C1=O	12%	1.4	-0.5	9	10	1.0	10	6.0	-24	-4
Cc1onc(-c2ccccc2Cl)c1C(=O)Nc1ncn[nH]1	.	0.0	.	.	.	.	-3	-0.8	37	-1
O=C(Cn1cnc2c(OCc3ccccc3)ncnc21)NCCCN1CCCC1=O	1%	2.3	0.7	6	13	-3.4	.	.	.	-3
Cc1ccc(C)c(S(=O)(=O)N2CCCCC2CCNC(=O)C(=O)NC2CC2)c1 (stereo unspecified)	-2%	-0.8	-12	-1	-6	0.1	8	3.0	10	-5
CC(C)N1CCc2c(sc(NC(=O)c3ccc(C(=O)c4ccccc4)cc3)c2C(N)=O)C1	.	0.5	15	-52	-85	-18	31	64*	3	.
CCCCNC(=O)CCc1c(C)nc2nc(-c3cc(OC)cc(OC)c3)nn2c1C	-5%	-0.1	.	.	.	.	23	?	4	.
Cc1nc2sc(C(=O)c3ccccc3)c(N)c2c2c1CCCC2	.	-0.1	9.1	-23	-36	1.5	36	?	-24	6
O=C(O)c1ccc(-c2cccc(Cl)c2)o1	-4%	1.1	.	-5	0	2.0	-10	-2.6	-8	-5
COc1ccc(C(=O)NNC(=O)C(C)NC(=O)c2ccccc2NC(=O)c2ccco2)cc1 (stereo unspecified)	22%	0.6	-4.3	10	12	4.0	-9	2.5	-2	-11
O=C(Nc1ccc(N2CCN(C(=O)c3ccccc3)CC2)cc1)c1ccc2c(c1)OCO2	6%	0.0	.	.	.	.	19	9.2	-3	0
CCOc1ccccc1C(=O)NC1CCN(Cc2nnnn2C2CCCC2)CC1	-8%	.	.	.	.	.	19	1.5	0	.
Cc1cccc(NC(=O)C2CC(=O)N/C(=N/N=C/c3ccco3)S2)c1 (stereo unspecified)	4%	-0.2	.	.	.	.	-1	1.3	6	-3
COC(=O)c1c(NC(=S)Nc2ccccc2Cl)sc(C)c1C	-4%	1.0	.	.	.	.	-16	0.9	15	12
Cc1cc(C)c(NC(=O)C2CC(=O)N(C(C)C)C2)c(C)c1 (stereo unspecified)	.	0.8	-1.2	21	9	2.4	-4	0.3	5	1
CCC(C)N(C(=O)COC(=O)C1C(C(=O)OC)=C(C)NC(C)=C1C(=O)OC)C1CCS(=O)(=O)C1 (stereo unspecified)	-6%	-0.1	-1.3	3	6	-1.2	-14	-3.9	-5	-1
NC(=O)CSc1nc2ccccc2c(=O)n1Cc1ccco1	20%	-1.5	.	.	.	.	-5	1.8	?	-10
COc1ccc(NC(=O)C2CCCN2S(=O)(=O)c2cccc3nsnc23)c(OC)c1 (stereo unspecified)	5%	0.6	.	.	.	.	-10	5.7	27	-3
Cc1ccc(C(=O)NCc2ccccn2)cc1S(=O)(=O)N1CCOCC1	-11%	-1.1	-0.4	7	11	-1.6	.	.	.	-3
COc1ccc(C(CNC(=O)CCNS(=O)(=O)c2ccc(C)cc2)N2CCOCC2)cc1 (stereo unspecified)	5%	2.0	8.7	3	0	-1.4	-1	3.6	-3	-1
COc1ccc(OCC(=O)NS(=O)(=O)c2ccc(Cl)cc2)cc1	.	-0.6	1.7	3	8	0.4	3	3.3	-2	-1
CC1=C(C(=O)OCC(C)C)C23C(=O)c4ccccc4C2(O1)OC(N)=C3C#N (stereo unspecified)	3%	-0.1	?	2	0	2.4	-1	-1.6	-8	-3
Cc1cccc(C)c1OCc1cc(C(=O)NCC2COCCO2)no1 (stereo unspecified)	1%	0.1	-1.5	-8	-7	0.5	-7	-2.0	0	-2
COc1ccc(CN2CCNC(=O)C2CC(=O)NCCc2nc(C)c3c(n2)CCC3)cc1C (stereo unspecified)	.	0.2	4.3	3	7	1.8	11	-6.8	-9	-3
CN1CCN(C(=S)NC(=O)/C=C/c2ccccc2)CC1	1%	-0.2	.	.	.	.	0	4.8	5	-6
CC(C)(C)NC(=O)Cn1c(-c2nonc2N)nc2ccccc21	5%	0.2	.	.	.	.	-9	4.4	10	-1
Cc1cccn2c(CN(C)C3CCOC3)c(C(=O)N3CCCCC3)nc12 (stereo unspecified)	1%	0.5	-12	2	1	1.6	-7	2.2	-8	-4
O=C1/C(=C2\C(=O)N(Cc3ccc(F)cc3)c3ccccc32)SC(=S)N1CCS(=O)(=O)O	1%	0.5	7.3	-5	4	-1.0	12	1.3	.	-5
CC(C)[C@H](NC(=O)c1ccccc1)C(=O)O	-3%	-0.2	-0.9	8	10	-0.4	-11	-1.4	0	-1
Cc1cnc(CN(C)C(=O)c2ccc3oc(Cc4ccc(Cl)cc4)nc3c2)[nH]1	.	0.1	2.1	-16	-21	-4.3	10	0.3	-3	5
CCN(CC)C(=O)CSc1nnc2nnc3cc(OC)ccc3n12	10%	0.4	-1.0	.	.	.	24	-44	-10	-37
CCOC(=O)C1=C(CN2CCN(C(=O)c3ccco3)CC2)NC(=O)NC1c1ccccc1 (stereo unspecified)	.	2.1	.	.	.	.	-10	-4.1	-5	-2
CCOC(=O)C1CCCN(C(=O)/C=C/c2ccc(OC)cc2)C1 (stereo unspecified)	-8%	-0.4	0.0	3	1	1.8	-2	-3.0	13	2
COc1cc(OC)c2ccc(=O)oc2c1C(CCN1CCCC(C)C1)c1ccc(N(C)C)cc1 (stereo unspecified)	.	1.2	22	1	0	4.1	28	7.6	-27	-3
COc1ccc(NC(=O)COc2coc(CN3CCc4ccccc4C3)cc2=O)cc1	11%	0.7	-1.6	23	14	1.4	1	-3.5	-1	.
CCC(C(=O)NCCc1ccccc1)c1ccccc1 (stereo unspecified)	.	0.4	-2.5	1	3	4.3	-4	-0.6	15	-8
CCC(=O)c1ccc(OCC(=O)OCC(=O)c2c(N)n(C)c(=O)n(C)c2=O)cc1	-2%	-0.4	-0.4	13	5	-1.0	.	.	.	-1
Cc1ccc(F)cc1NC(=O)C1C2CCC(O2)C1C(=O)O (stereo unspecified)	.	0.2	-5.5	0	3	-3.0	-14	-0.1	-7	-2
C=CCn1c(SCC(=O)Nc2cccc3ccccc23)nnc1-c1cnccn1	-4%	-0.6	.	.	.	.	-33	?	1	-4
CC(C)CC(C)N1CCC(n2nccc2NC(=O)CCc2ccccc2)CC1 (stereo unspecified)	.	0.3	1.6	-1	12	-1.2	40	4.2	-4	-8
NS(=O)(=O)c1ccc(NC(=S)Nc2cc(Cl)c(Cl)cc2Cl)cc1	-2%	1.6	5.2	21	9	-6.0	-19	0.5	5	-4
CN1CCC(N(C)C(=O)c2sc3cc(F)ccc3c2Cl)CC1	-2%	-0.6	1.5	3	3	-0.4	78*	3.1	-21	1
O=C(NCc1ccccn1)Nc1cccc(Cl)c1	2%	-0.2	3.0	-13	-9	3.1	-11	-0.3	-6	1
c1ccc2sc(NCC3CCCO3)nc2c1 (stereo unspecified)	10%	-1.0	-1.6	17	8	-5.7	0	7.0	-21	2
CCOC(=O)c1cc(-c2ccc(N3CCOCC3)cc2)nn1-c1ccc(F)cc1F	.	0.6	.	.	.	.	7	-0.5	-2	-10
CN(C)S(=O)(=O)c1ccc2c(c1)nc(CCC(=O)O)n2C	29%	.	0.1	23	12	8.4	-8	-3.7	-12	.
CCOc1cc(/C=N/Nc2nc(C)cc(=O)[nH]2)ccc1O	0%	-0.3	1.0	6	1	6.5	-7	-0.6	-9	2
CCOc1ccc2nc(SCC(=O)Nc3ccc4[nH]c(=O)[nH]c4c3)[nH]c2c1	0%	-0.1	-2.0	-17	-6	-2.7	4	1.9	0	1
NNC(=O)c1oc2nc(-c3ccc(Cl)cc3)cc(-c3ccccc3)c2c1N	-11%	-0.4	-6.5	10	11	3.0	12	3.1	15	6
CCOc1c(Br)cc(C(=O)N2CCCN(C)CC2)cc1OC	-5%	-0.6	-2.7	8	13	0.3	1	-1.8	-21	-5
O=C(Cc1c(F)cccc1Cl)OCC(=O)c1ccc[nH]1	-5%	0.2	-5.2	0	-18	-0.1	.	.	.	0
CCCCS(=O)c1snnc1C (stereo unspecified)	-5%	0.7	-0.3	10	3	1.0	-13	?	-2	-7
CCCCOC(=O)/C(=C/c1cn(C)c2ccccc12)NC(=O)c1ccc(OC)cc1	4%	0.0	-41	2	-14	3.4	29	5.9	-22	-3
CCN(CC)CCC(C)OC(c1ccccc1)c1ccccc1 (stereo unspecified)	-5%	0.4	2.0	6	1	-1.9	40	4.5	-38	-7
Cc1n[nH]c(C)c1N=Nc1cc(Cl)ccc1Cl	23%	0.7	.	.	.	.	14	1.2	26	-12
O=C1NN(c2ccccc2)C(=O)/C1=C\c1ccc2c(c1)OCO2	-6%	?	4.0	-7	-2	-3.4	-19	-1.1	-17	1
Cc1c(CC(=O)O)c(=O)oc2cc(OCc3nn[nH]n3)ccc12	-2%	1.4	.	.	.	.	-17	4.6	-5	-8
COc1ccc(NS(=O)(=O)c2nnc(NC(=O)c3ccccc3F)s2)cc1	.	-0.6	1.8	-10*	-33*	-6.4*	10	0.9	-20	3
C/C(=N\NC(=S)NC(C)C)c1ccco1	.	-0.6	7.9	-5	3	-0.5	-23	-0.4	17	-16
COc1ccccc1CN(C)C(=O)c1ccccc1Sc1ccccc1C#N	.	0.1	0.5	-41	-63	-2.2	33	-0.4	-20	-6

Other entries:
SMILES	Vif A3G	A1 inh	MLL AF4-AF9 inh	Ecoli rRNA inh	Ecoli rRNA inh OD600	Ecoli rRNA inh RFP	T cruzi inh	RanGTP-Impb inh	Calb FLC	Beta apoptosis
O=c1oc2cc(O)ccc2c2ccccc12	-46%	0.2	.	.	.	.	2	-0.4	-5	0
CC(CCc1ccccc1)NC(=O)CCc1cn(C)c2ccccc12 (stereo unspecified)	-7%	-0.7	-1.1	-29	-33	-0.7	23	2.1	3	-16
CC1CC(C)CN(C(=O)CCCNC(=O)c2ccc(Cl)cc2)C1 (stereo unspecified)	.	0.1	-0.3	-4	-2	-0.2	3	3.2	-6	.
CC1CC(C)CN(C(=O)CSc2nnc3ccccn23)C1 (stereo unspecified)	.	-1.2	2.7	1	2	-1.0	.	.	.	5
[O-][n+]1ccc(C2CC2)cc1	32%	0.4	.	.	.	.	-7	4.7	-8	5
CCN1C(=O)[C@H]2[C@@H](c3ccc(C)cc3)N3C(=O)N(c4cccc(Br)c4)C(=O)[C@@]3(Cc3ccccc3)[C@H]2C1=O	.	-0.1	.	2	9	1.3	-12	-0.1	16	-5
CCCc1cc(=O)[nH]c(SCc2ccccc2Cl)n1	21%	0.8	.	.	.	.	-9	-0.7	17	-1
O=C(CCl)Nc1nc(-c2ccco2)c(-c2ccco2)s1	.	-0.2	8.5	.	.	.	-40	-3.8	7	-23
COc1ccc(N2C(=O)C(Cl)=C(Nc3c(C)n(C)n(-c4ccccc4)c3=O)C2=O)cc1	2%	0.3	-3.1	-8	12	3.6	-5	5.2	0	.
